# Sa RN4220 lethal: growth inhibition of S. aureus RN4220, primary screen, OD600; 16 h; inhibition, % (concentration not given with the values); 330,000 tested, 0.33% active;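 active = z-score of -3 or lower and OD600 up to 0.18 on both plates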;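 also: plate controls were untreated cells for no effect and reference antibiotic for full effect; stock transfer was 100 nL into about 80 µL; one replicate is shown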
# Bead autofluor: flagged as autofluorescent in microsphere protease counterscreen; compound autofluorescence counterscreen, microsphere flow cytometry; stronger effect = higher value; fluorescence intensity (concentration not given with the values); 360,000 tested, 3.1% active;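 active = at least 3 SD above the mean of all compounds, about 16000 in these data; inconclusive = too few beads counted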;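 also: 100 nL of 1 mM stock went into each well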
# PrP UTR inh: inhibition of PrP 5' UTR reporter expression. cell-based PrP 5' UTR mRNA reporter, plate reader. inhibition, % (concentration not given with the values). 340,000 tested, 0.35% active;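 active = every replicate at 50% or more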;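 also: 0 = median of the neutral control wells; tested in H4 reporter cells; numbers are from one replicate; inactives centre near -14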
# ugtP null kill: growth inhibition of ugtP-null S. aureus, primary screen, RN4220 ugtP deletion, OD600 | 16 h; some inactives read as strong as hits | growth inhibition, % (no concentration beside the values) | 330,000 tested, 0.54% active | AID 1259309, 2017;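 active = z-score under -3 and OD600 up to 0.15 on both plates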;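 also: plate controls were untreated wells for no effect and antibiotic for full effect; wells of about 80 µL received 100 nL stock; the first replicate is given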
# Mtb hypoxia rep: PubChem AID 1159583. M. tuberculosis hypoxia-regulated fluorescent reporter, fluorescence. fluorescence inhibition, % (test concentration not listed). 300,000 tested, 0.1% active;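 active = 35 to 45% if threefold the growth effect, above 45% if 1.5-fold the growth effect; inactive = the rest, general growth blockers included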;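 also: wells of about 50 µL received 100 nL stock; 0% = vehicle wells and 100% = reference inhibitor wells; whole bacteria with a GFP reporter of the hypoxia response; strong numbers were not always called active; many hits fall short of the cut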
# BJeLR viability: MLPCN primary cell-based screen for lethality selective to Ras in HRASV12 cells. BJeLR (HRASV12) viability, CellTiter-Glo ATP luminescence, 48 h; reference of the scale not given here. inhibition, % (no concentration beside the values). 300,000 tested, 0.17% active. AID 1554, 2009;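 active = replicate mean above 50%; inconclusive = above 50% but judged a plate artefact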;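 also: 50 nL library stock added to about 25 µL; numbers are from one replicate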
# Mtb hypoxia rep growth: second read-out of Mtb hypoxia rep, no call of its own (marks repeat the call); growth inhibition, %; measured here: M. tuberculosis growth (absorbance);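 0% = vehicle and 100% = reference antibiotic; read after six days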
# * marks the source's active call; other numbers are inactive results; ? = inconclusive; . = no result given. An unsorted share of the library. Share with any hit: about 3.9%.
no.	smiles	Sa RN4220 lethal	Bead autofluor	PrP UTR inh	ugtP null kill	Mtb hypoxia rep	Mtb hypoxia rep growth	BJeLR viability
1	COc1ccc(CNCCc2ccc(Cl)cc2Cl)cc1	3.6	3143	-3.8	10.2	1.0	-1.1	-9.7
2	COCCSc1nnc(NC(=O)C2CC(=O)N(c3ccc(Cl)cc3)C2)s1 (stereo not given)	1.7	4555	-13.6	0.4	14.3	5.2	-5.6
3	Cc1cccc(C)c1NC(=O)C1(N(Cc2ccco2)C(=O)CC2NC(=O)NC2=O)CCCC1 (stereo not given)	-0.6	4445	-18.1	2.1	-3.0	11.0	1.8
4	Cc1ccc(-c2noc(CCC(=O)NCCCN3CCN(c4ccc(F)cc4)CC3)n2)cc1	-1.0	2676	-17.1	8.4	.	.	0.8
5	CCOC(=O)c1c(C)[nH]c(C(=O)C(C)N2CCCC2)c1C (stereo not given)	0.5	4240	-6.6	-3.0	6.4	5.9	3.8
6	O=C(CN1CCN(Cc2ccccc2)CC1)N/N=C/c1c[nH]c2ccccc12	.	2292	-37.1	.	.	.	0.0
7	COc1ccc(S(=O)(=O)N2CCOCC2)cc1NC(=O)CCNC(=O)c1ccc([N+](=O)[O-])cc1	-3.6	2962	-3.6	-1.5	-7.1	-1.7	.
8	COc1ccc(C(=O)/C=C/NCc2ccc(C)cc2)cc1	6.3	2447	-25.2	2.1	.	.	1.9
9	COc1ccc(N=C2SC(CC(=O)Nc3cccc(Cl)c3)C(=O)N2Cc2ccco2)cc1 (stereo not given)	-4.0	2107	-12.9	-9.2	14.2	2.3	-2.2
10	CCNS(=O)(=O)c1ccc(CCC(=O)N2CCc3ccccc3C2)cc1	4.5	2936	-11.6	0.7	12.4	-0.6	-0.2
11	C=CCn1c(=S)[nH]c2cc(-c3ccccc3)sc2c1=O	-2.2	4978	-60.1	-6.1	-3.7	-3.3	-6.5
12	COc1ccc(Cc2nnc(NN=C(C)c3ccccc3)[nH]c2=O)cc1OC	-4.4	.	.	6.8	4.8	6.6	.
13	CC1CC(C)CN(C(=O)CNC(=O)c2ccc3ccccc3c2)C1 (stereo not given)	0.7	6536	-5.8	-1.7	4.7	14.3	7.3
14	CN(C)c1ccc(C(=O)c2ccc(N(C)C)c3ccccc23)cc1	-0.8	3367	-2.8	2.9	-1.4	8.6	27.2
15	COc1ccccc1C(=O)OCc1nc(N)nc(Nc2ccccc2C)n1	2.9	2051	-34.1	5.9	-2.0	-1.4	-4.1
16	O=C(CCSc1nc(-c2ccco2)cc(C(F)(F)F)n1)Nc1ccc2c(c1)OCO2	-18.8	2739	-23.1	-1.2	13.6	8.9	-6.0
17	COc1ccc(S(=O)(=O)NCC2CCCN(C(=O)c3ccco3)C2)cc1 (stereo not given)	2.7	4634	-12.1	8.8	2.3	1.5	0.3
18	OC(C#CCN1CCCCC1)c1ccccc1 (stereo not given)	0.2	10063	-34.5	5.3	17.5	3.7	9.2
19	Oc1sc(C=Nc2ccc(F)cc2)c2ccccc12	3.7	3709	-44.1	-1.4	8.4	7.6	-3.9
20	COc1ccc2c(c1)C1NC(=S)NC(C)(O2)C1C(=O)Nc1ccc(C)cc1C (stereo not given)	4.1	2082	4.3	-9.4	2.5	2.0	-0.2
21	CC1=CC(C)(C)NC(=S)N1c1cc(C)cc(C)c1	3.9	4071	-7.1	4.0	7.8	2.9	-3.3
22	FC(F)(F)c1ccc2c(c1)NCC1CCCN21 (stereo not given)	2.8	3455	-13.9	-4.3	3.7	-2.4	5.9
23	CCN(CC)S(=O)(=O)c1ccc(/C=C/C(=O)Nc2ccc(N3CCOCC3)cc2)cc1	4.5	5113	-6.0	6.7	4.1	-6.0	5.9
24	CC1C(=O)C(C)(C)C(=O)OC1c1ccc([N+](=O)[O-])cc1 (stereo not given)	4.0	6044	3.6	0.8	19.2	12.6	-6.3
25	CCn1c2c(c3cc(Cl)ccc31)CCCC2=O	0.5	5673	-5.3	12.6	4.3	13.6	2.9
26	Cc1cccc(C)c1OCC(=O)Nc1cccc(-c2nnc(-c3ccccc3)o2)c1	-4.8	2862	-22.7	-7.6	-0.6	8.0	11.2
27	C=CCn1c(SCC(=O)NCCCO)nc2sc3c(c2c1=O)CCC3	4.8	4116	-13.1	9.2	14.7	2.3	0.7
28	OCCC1CCCCN1CC(O)COCc1ccc(Cl)cc1 (stereo not given)	1.3	4194	-8.0	4.4	-2.5	-8.8	-3.3
29	COCCCN1C(=O)C(=O)/C(=C(/O)c2ccc(C)cc2)C1/C=C/c1ccccc1 (stereo not given)	9.3	2619	-9.2	-2.7	9.0	3.4	-2.1
30	Cc1ccc(CN2CCN(CC(=O)N3CCC4(CC3)OCCO4)C2=O)cc1	2.0	2377	-15.2	4.0	.	.	-1.3
31	COc1ccc(NC(=O)CN(C)C(=O)CSCc2ccc(C)cc2)cc1	1.3	6395	-21.1	0.5	4.9	6.9	6.3
32	Cc1cc(N2CCN(c3ccccc3)CC2)nc(NCc2ccccc2)n1	3.3	3473	1.9	-5.9	.	.	10.3
33	Cc1ccc(S(=O)(=O)NCc2ccccc2)cc1C(=O)NC(C)c1ccc(S(N)(=O)=O)cc1 (stereo not given)	3.7	4463	-19.1	7.4	-10.7	5.4	.
34	c1ccc(-c2ccc(OCCCn3cncn3)cc2)cc1	10.6	3480	-18.4	5.6	.	.	.
35	CCN1CCN(CCNC(=O)c2ccc(/C=C3/Sc4ccccc4N(Cc4ccccc4C)C3=O)cc2)CC1	-1.6	6059	-8.1	18.1	5.5	5.7	75.5*
36	CC1CCCC(NC(=O)c2cccs2)C1C (stereo not given)	4.3	.	.	8.0	.	.	.
37	CC(=O)c1ccc(-c2nnc(CCC(=O)N3CCCC(C(=O)CC(C)C)C3)o2)s1 (stereo not given)	5.9	5257	-82.2	10.3	5.3	5.2	1.5
38	COc1cccc(C2=NO[C@@H]3C(=O)N(Cc4ccccc4)C(=O)[C@H]23)c1OC	4.3	8668	-42.9	-0.1	7.8	8.2	-6.9
39	O=C(NCCCN1CCCC1=O)c1ccc(NS(=O)(=O)c2cccc([N+](=O)[O-])c2)cc1	4.2	?	2.1	12.5	3.8	2.9	0.5
40	CCOC(=O)/C=C/C(=O)OCC(=O)Nc1ccc(C)cc1	6.0	4349	-34.1	6.1	6.3	5.9	4.0
41	O=c1cccc2n1CC1CC2CN(Cc2c(F)cccc2Cl)C1 (stereo not given)	9.8	9473	-13.6	0.6	12.6	5.2	-6.8
42	O=C(O)/C(=C\c1ccc(-c2ccc(F)cc2)o1)c1ccccc1	5.6	3637	-7.3	10.3	6.6	11.2	.
43	O=C(c1oc2ccccc2c1CSCc1ccccc1)N1CCN(c2ncccn2)CC1	7.0	3198	-15.7	76.6	13.1	4.8	-7.5
44	CC(=O)Nc1ccc(C(c2c(O)c3ccccc3oc2=O)c2c(C)n(C)n(-c3ccccc3)c2=O)cc1 (stereo not given)	-0.8	6493	-10.5	-10.1	-1.6	-0.8	13.4
45	COCCN(C(=O)CNC(=O)c1ccco1)C(C(=O)NC1CCCC1)c1ccc(OC)c(OC)c1 (stereo not given)	4.8	5711	-12.6	3.0	6.7	-1.8	-8.6
46	CC1CCN(c2ccc3nnc(CCC(=O)NCC(C)c4ccccc4)n3n2)CC1 (stereo not given)	4.8	5205	-13.5	-3.6	-4.5	1.5	3.8
47	CCOC(=O)/C=C/C(=O)Nc1ccc(S(=O)(=O)N2CCCCCC2)cc1	6.5	4589	-1.9	8.6	14.6	7.1	5.9
48	CN(C(=O)c1cccc(NC(=O)c2ccco2)c1)c1ccccc1	1.8	3786	-24.4	5.2	-9.2	8.5	-6.5
49	CC(=NNC(=O)c1nnn(-c2nonc2N)c1-c1cccs1)c1ccc(O)cc1	-2.4	.	.	-2.7	3.2	8.0	.
50	O=C(Cn1c(SCC(=O)N2CCc3ccccc3C2)nc2ccccc21)NC1CCCC1	6.4	4210	-26.3	2.2	18.8	15.8	-0.2
51	COc1ccc(N(C(=O)c2snc(C(N)=O)c2N)C(C(=O)NCc2ccc(F)cc2)c2ccc(O)cc2)cc1 (stereo not given)	-6.0	3809	-19.1	2.9	-4.0	4.6	-6.7
52	CC(NC(=O)C1CCC1)c1ccccc1 (stereo not given)	0.7	6915	-11.4	0.1	13.1	4.8	1.0
53	COCCN(C(=O)CN1CCc2ccccc2C1)c1c(N)n(Cc2ccccc2)c(=O)[nH]c1=O	1.5	8830	-15.2	1.2	-0.2	6.4	1.9
54	CCCCn1c(N)c(N(CCOC)C(=O)c2cccc(OCc3ccccc3)c2)c(=O)[nH]c1=O	3.6	.	-16.1	1.1	4.4	8.3	0.9
55	Cc1ccc(C(=O)NNC(=O)/C=C\C(=O)O)cc1	0.4	5357	13.5	11.3	0.7	12.1	3.3
56	Cc1ccc(S(=O)(=O)N(C)c2ccc(C(=O)NCC3(N(C)C)CCCCC3)cc2)cc1	2.4	5745	-18.6	9.7	6.3	0.9	10.7
57	CCCCP(=O)(O)CCC(=O)O	5.4	3331	-12.6	9.6	2.3	2.3	3.8
58	Cc1cc(=O)[nH]c(SCC(=O)Nc2ccc(S(N)(=O)=O)cc2)n1	6.6	4077	-19.7	-2.4	4.5	1.2	3.2
59	CCc1ccc(S(=O)(=O)NCc2cn3c(C)csc3n2)s1	-5.8	6601	-12.5	1.5	5.1	9.4	-3.1
60	O=C(NCc1ccco1)C(c1ccco1)N(C(=O)Cn1nnc2ccccc21)c1ccc2c(c1)CCC2 (stereo not given)	-6.7	4925	-17.2	-2.5	.	.	-8.8

# Given in transposed form: 9 of the compounds above.
31: COc1ccc(NC(=O)CN(C)C(=O)CSCc2ccc(C)cc2)cc1
32: Cc1cc(N2CCN(c3ccccc3)CC2)nc(NCc2ccccc2)n1
33: Cc1ccc(S(=O)(=O)NCc2ccccc2)cc1C(=O)NC(C)c1ccc(S(N)(=O)=O)cc1 (stereo not given)
34: c1ccc(-c2ccc(OCCCn3cncn3)cc2)cc1
35: CCN1CCN(CCNC(=O)c2ccc(/C=C3/Sc4ccccc4N(Cc4ccccc4C)C3=O)cc2)CC1
36: CC1CCCC(NC(=O)c2cccs2)C1C (stereo not given)
37: CC(=O)c1ccc(-c2nnc(CCC(=O)N3CCCC(C(=O)CC(C)C)C3)o2)s1 (stereo not given)
38: COc1cccc(C2=NO[C@@H]3C(=O)N(Cc4ccccc4)C(=O)[C@H]23)c1OC
39: O=C(NCCCN1CCCC1=O)c1ccc(NS(=O)(=O)c2cccc([N+](=O)[O-])c2)cc1

compound no.,31,32,33,34,35,36,37,38,39
Sa RN4220 lethal,1.3,3.3,3.7,10.6,-1.6,4.3,5.9,4.3,4.2
Bead autofluor,6395,3473,4463,3480,6059,.,5257,8668,?
PrP UTR inh,-21.1,1.9,-19.1,-18.4,-8.1,.,-82.2,-42.9,2.1
ugtP null kill,0.5,-5.9,7.4,5.6,18.1,8.0,10.3,-0.1,12.5
Mtb hypoxia rep,4.9,.,-10.7,.,5.5,.,5.3,7.8,3.8
Mtb hypoxia rep growth,6.9,.,5.4,.,5.7,.,5.2,8.2,2.9
BJeLR viability,6.3,10.3,.,.,75.5*,.,1.5,-6.9,0.5

# (next part)
no.	smiles	Sa RN4220 lethal	Bead autofluor	PrP UTR inh	ugtP null kill	Mtb hypoxia rep	Mtb hypoxia rep growth	BJeLR viability
61	O=C(c1ccc(F)cc1)N1CCN(C2CC3CCC2C3)CC1 (stereo not given)	3.7	?	-16.7	10.1	19.4	13.7	-6.2
62	O=S(=O)(Nc1ccc(-c2ccc3nncn3n2)cc1)c1cccc(F)c1	6.2	5324	-20.8	1.9	6.6	8.3	12.2
63	CCc1ccc(CN2C(=O)c3ccccc3C2C(=O)NCC2CCCO2)cc1 (stereo not given)	1.7	4728	-26.9	5.0	-0.3	3.9	-7.8
64	Cc1cc(C)c(S(=O)(=O)N2CCOC2CNC(=O)C(=O)NCCCN2CCOCC2)c(C)c1 (stereo not given)	3.2	4665	-15.9	10.8	-3.2	-8.7	1.2
